NPYLR7 ag = activates Aedes aegypti NPYLR7 receptor; activation, % at 10 µM; 270,000 tested, 0.15% active; HEK293T NPYLR7/Galpha15, GCaMP6s calcium fluorescence; AID 1259423; in the data active = activation above about 40%;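 note: 0% = vehicle and 100% = reference agonist at the receptor; some compounds past the cut are filed as inactive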
NPYLR7 ag max-min = recorded beside NPYLR7 ag, whose call it bears; activation, %; measured here: Max-Min RFU normalised activation; some inactives read as strong as hits;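 span of the calcium signal over five minutes; 0% = vehicle and 100% = native peptide agonist; compound fluorescence can raise it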
Active calls of the source: *; & = joins results of further samples. This is a subset; count on the stated rates, not on these rows.

Sample of the layout, seven compounds:
SMILES | NPYLR7 ag | NPYLR7 ag max-min
CC1=C(C(=O)OCCCc2ccccc2)C(c2cccs2)NC(=O)N1C (stereo unspecified) | 7 | 9
CCCCCNC(=O)c1cccnc1Nc1cc(Cl)ccc1C | -18 | -24
O=C(CC1CSc2nccc(=O)n21)NC(c1ccccc1)c1ccccc1 (stereo unspecified) | -2 | -5
Cc1ccc2c(c1)c(C1CCN(C(=O)c3cc4ccccc4s3)CC1)cn2C | 14 | 19
COc1cc(SC)ccc1C(=O)NCCCC12CC3CC(CC(C3)C1)C2 | 1 | 4
Cc1ccccc1CN1CCN(C(=O)c2cn(C)cc3c(=O)n(-c4ccccc4)nc2-3)CC1 | -4 | -7
Cc1ccc2c(Cl)cc(Cl)c(O)c2n1 | 10&15 | 6&13

The listing, from the first entry:
SMILES | NPYLR7 ag | NPYLR7 ag max-min
CC1=C(C(=O)OCCCc2ccccc2)C(c2cccs2)NC(=O)N1C (stereo unspecified) | 7 | 9
CCCCCNC(=O)c1cccnc1Nc1cc(Cl)ccc1C | -18 | -24
O=C(CC1CSc2nccc(=O)n21)NC(c1ccccc1)c1ccccc1 (stereo unspecified) | -2 | -5
Cc1ccc2c(c1)c(C1CCN(C(=O)c3cc4ccccc4s3)CC1)cn2C | 14 | 19
COc1cc(SC)ccc1C(=O)NCCCC12CC3CC(CC(C3)C1)C2 | 1 | 4
Cc1ccccc1CN1CCN(C(=O)c2cn(C)cc3c(=O)n(-c4ccccc4)nc2-3)CC1 | -4 | -7
Cc1ccc2c(Cl)cc(Cl)c(O)c2n1 | 10&15 | 6&13
c1ccc(OCc2noc(-c3ccc(N4CCCCO4)nc3)n2)cc1 | 24 | 14
O=C(NCc1cccc2ccccc12)NCC1CN(c2ccccc2)C(=O)O1 (stereo unspecified) | 12 | 9
CCOC(=O)C(CNC(=O)c1c(CC)noc1C)Cc1ccccc1 (stereo unspecified) | 2 | 0
CC(C)c1ccccc1OCC(=O)Nc1ccc(C(=O)NC2CC2)cc1 | 1 | -2
NC(=O)C1Cc2ccccc2CN1C(=O)/C=C/c1csc2ccccc12 (stereo unspecified) | 2 | -1
CC(=O)N1N=C(c2cccs2)OC1C(=O)Nc1cccc(C(N)=O)c1 (stereo unspecified) | -1 | 25
Cc1ccc(/C=N\NC(=O)CSc2nc3ccccc3n2Cc2ccccc2)o1 | -2 | -11
CC(C)(C)c1cc2n(n1)CC(=O)N2 | -1 | -1
CC1(C)CCc2c(ccc3c2OC(C)(C)CC3)O1 | 4 | 11
CC(C)C(c1ccccc1Cl)N(C)C(=O)c1cc(C(N)=O)c[nH]1 (stereo unspecified) | 10 | 8
N#Cc1ccc(N2CCC(C(=O)Nc3ccc(N4CCOCC4)cc3)CC2)nc1 | -2 | -1
COC(=O)[C@@H]1C[C@@H](NC(=O)c2cn[nH]c2-c2cccc(OC)c2)CN1C | 10 | 1
CCN1CC(=O)N(CC)C1=S | 5 | 7
CCc1ccc(CN(C)CC(=O)Nc2cc(S(C)(=O)=O)ccc2F)cc1 | 29 | 27
Cc1cc(C)cc(CC(=O)N2CCC2(C)C(=O)NS(=O)(=O)c2ccc(Br)cc2)c1 (stereo unspecified) | 2 | 1
CCOc1ccc(N2C(=O)CSC2c2ccccc2NC(=O)Cc2cccs2)cc1 (stereo unspecified) | 21 | 27
COc1cc(OC)c(-c2c(-c3ccccc3)ncn2CC2CNCCO2)cc1OC (stereo unspecified) | 7 | 3
O=C1c2ccccc2C(=O)N1CCCCN(C(=O)C12CC3CC(CC(C3)C1)C2)c1ccc(Cl)cc1 | 3 | 1
Cc1nn(C)c(C)c1CCC(=O)N(C)Cc1nc(-c2ccccc2)no1 | -5 | -8
CCOCCCN(CC(=O)N1CCc2sccc2C1c1ccc(Cl)cc1Cl)C(=O)COCc1ccccc1 (stereo unspecified) | -14 | -14
CCc1nsc(N2CCCN(C(=O)NCC3CC3)CC2)n1 | -15 | -19
Cc1cccnc1CC(C)NC(=O)c1ccc(NC(=O)c2ccoc2C)cc1 (stereo unspecified) | 6 | 3
N=c1oc2ccccc2cc1C(=O)Nc1cccc(F)c1 | -6 | -11
CN(Cc1ccccc1)Cn1nc(Nc2ccccc2F)sc1=S | 8 | 2
O=C1OCCC1Sc1nnc(-c2c[nH]c3ccccc23)o1 (stereo unspecified) | 0 | -1
COCC(=O)N1CCC2(CC1)CN(CCOCc1ccccc1)CCN2C | -6 | -7
O=C(NCC1CC1)N1Cc2ccccc2C(c2ccccc2)C1 (stereo unspecified) | 2 | -3
OCCCc1nc2ccccc2n1CC1CCCCC1 | -2 | 25
CCN1CCCC1CNC(=O)/C=C/c1ccc2c(c1)OCO2 (stereo unspecified) | -17 | -22
CC1CCCN(S(=O)(=O)c2ccc(C(=O)N(C)Cc3nc4ccccc4c(=O)[nH]3)cc2)C1 (stereo unspecified) | 6 | 13
O=C(CN1CCN(c2ccccc2)CC1)NCC1CCCCC1 | -4 | -7
COc1ccc(NC(=O)Cn2ccn3nc(-c4ccccc4)cc3c2=O)cc1 | 4 | 2
Cc1ccc(S(=O)(=O)c2c(C)nn(C(C)(C)C)c2OC(=O)c2ccccc2[N+](=O)[O-])cc1 | 0 | 15
Cc1cc(C(=O)CSc2nnnn2C(C)C)c(C)n1C1CC1 | -2 | -3
CN1C[C@@H]2CC[C@H](CC1=O)N2C(=O)c1cc2ccccc2[nH]c1=O | -2 | -2
CCCCCOc1ccc(C(=O)Nc2ccccc2OC)cc1OCCCCC | -11 | -18
COc1ccc(S(=O)(=O)NCC2CCCO2)cc1N1CCN(C(=O)C(C)Oc2ccccc2)CC1 (stereo unspecified) | -1 | 14
CC1(C)CCC(NCc2cccc3c2OCO3)c2ccccc21 (stereo unspecified) | 10 | 6
CCC(=O)Nc1c(-c2cccc(OC)c2)c(=O)c2ccccc2n1C | 5 | 0
CC(C)N(CC(N)=O)C(=O)Cc1ccc(Cl)c(Cl)c1 | 7 | 0
Cc1ccc(Oc2ncccc2CNCc2ccc(C)o2)cn1 | -3 | -6
O=C(CN1CN(c2ccccc2)C2(CCN(C(=O)/C=C/c3ccccc3)CC2)C1=O)NC1CCCCC1 | 14 | 15
CC(=O)C1(c2ccccc2)CCN(c2cc(Cl)nc(SCc3cccc(C(=O)NCCc4ccc(Cl)cc4Cl)c3)n2)CC1 | 4 | 12
CCc1nc2c(OCc3ccc(F)c(F)c3)cccn2c1N(C)C(=O)c1ccc(OC)cc1 | 33 | 22
CC(C)(C)Nc1c(-c2ccc(F)cc2)nc2ccc(Cl)cn12 | 4 | 13
C[C@H](NC(=O)OCc1ccccc1)C(=O)N1CCOC(c2ccccc2)C1 (stereo partly specified) | 7 | 4
CC(C)c1ccc(/C=C2/SC(=Nc3ccccc3Cl)NC2=O)cc1 | -2 | -8
CCC(=O)Nc1ccc(N(C)C)c(CN(Cc2ccco2)C(=O)c2ccco2)c1 | -2 | 2
CCOC(=O)c1c(C)nn(-c2ccc(C(=O)NC(C)(C)CC)cc2)c1C | 4 | 3
O=C(Nc1ccc2nc([C@@H]3O[C@H](CO)[C@@H](O)[C@H](O)[C@H]3O)[nH]c2c1)C1CCCCC1 | -2 | 12
CCOc1ccc(-c2ccnc(N3CCN(S(=O)(=O)c4ccc(Cl)cc4Cl)CC3)n2)cc1 | 3 | 0
Cc1onc(-c2ccccc2Cl)c1C(=O)Nc1ccc(-c2nc3ccccc3o2)cc1 | -8 | -12
CON(C)C(=O)c1cccc(S(=O)(=O)Nc2ccc(Br)cc2)c1 | 4 | 8

The list goes on:
Every second line gives: NPYLR7 ag, NPYLR7 ag max-min
Cn1c(=O)c2c(ncn2CCCC(=O)Nc2ccnn2Cc2cccs2)n(C)c1=O
    4, 3
Cc1cc(=O)n2c3ccccc3n(CC(O)CNc3ccc(Cl)cc3)c2c1C#N (stereo unspecified)
    1, -3
CCC(C(=O)NC1CC1)n1nc(C)n2c(cc3occc32)c1=O (stereo unspecified)
    -11, -9
COc1ccc(C)c(NS(=O)(=O)c2ccc(N3C(=O)C(C)CS3(=O)=O)cc2)c1 (stereo unspecified)
    -9, -11
CCCc1cc(=O)n(CC(=O)Nc2ccc(OCC)cc2)c(-n2nc(C)cc2C)n1
    0, 3
COCCNS(=O)(=O)c1ccc(OC)c(N2CCN(S(=O)(=O)c3ccc(F)cc3F)CC2)c1
    0, -6
Cc1cc2c(cc1C)NC(c1ccc(Cl)c(F)c1)C1C(=O)CC(C)(C)CC1=N2 (stereo unspecified)
    -4, -11
O=C(CCc1cc(Cl)cs1)NCCNC(=O)c1ccccc1
    10, 9
COc1ccc(N2C(=O)CC(N(CCc3ccccc3)C(=O)/C=C/C(=O)O)C2=O)cc1 (stereo unspecified)
    1, 0
CCc1ccccc1OCCN1CCCN(c2ncccn2)CC1
    -1, -4
COc1ccccc1Cn1ccc2nc3ccn(-c4ccncc4)c(=O)c3cc2c1=O
    6, 4
CSc1nn(CC(=O)Nc2ccc(C)c(F)c2)c(N)c1S(=O)(=O)c1ccccc1
    3, 1
COc1ccc(-n2c(-c3ccccc3)cn(-c3ccccc3)c2=O)cc1
    18, 11
CC(C)N(C)C(=O)[C@@H]1[C@@H](CCO)c2cccnc2C(=O)N1C
    2, 4
COc1ccc(CNC(=O)c2nnn(CC(=O)Nc3ccc(C)cc3)c2N)cc1
    -5, -9
CCCC(=O)Nc1ccc(-c2csc(N3CCCC3=O)n2)cc1
    0, -2
COc1cc2c(cc1CN1CCC(O)(Cc3cc(-c4ccccc4)no3)CC1)CCC2
    3, 1
Cc1nnc2c(NCc3cc(Cl)c4c(c3)OCCO4)nccn12
    2, -25
CC(C)Cc1ccc(C(NC(=O)C2CC2)c2cccs2)cc1 (stereo unspecified)
    2, -2
Cc1ccnc(-n2cccc2CN2CCN(c3cc(=O)[nH]c(N)n3)CC2)c1
    0, -3
O=C(O)c1coc(CN(Cc2cccc(Oc3ccccc3)c2)Cc2ccco2)n1
    0, -2
CC(C)CNc1ccc2c(n1)C(=O)N([C@H](C)C(=O)NCCCN1CCOCC1)C2
    7, 4
COc1ccc(NC(=O)CN(C)CCS(=O)(=O)c2cc(C)ccc2C)cc1
    1, 1
CC(C)c1c(C(=O)NCc2ccccn2)cnn1-c1ccc(Cl)cc1
    21, 32
Cc1c(C(=O)NC(C)CCc2ccccc2)cc(-c2ccc(Cl)cc2)n1-c1cccc(F)c1 (stereo unspecified)
    -12, -12
CCOC(=O)c1ccc2c(c1)nc(SCc1ccccc1OC(F)F)n2CCc1ccc(OC)cc1
    3, -1
COc1ccc(-c2cc(NC(C)C)ncn2)cn1
    4, 2
CCOC(=O)c1cc([N+](=O)[O-])sc1NC(=O)c1cccc(Br)c1
    -3, -2
Cn1c(=O)c2c(SCc3cccnc3)nc(-c3cccc(F)c3)nc2n(C)c1=O
    -3, -6
COc1ccc(Nc2nc(NCC3CCCO3)nc3[nH]ncc23)cc1 (stereo unspecified)
    0, -1

Whole records, looked up by structure.
COc1ccc(NC(=O)CN(C)CCS(=O)(=O)c2cc(C)ccc2C)cc1 is entered as NPYLR7 ag = 1; NPYLR7 ag max-min = 1
CCOC(=O)c1ccc2c(c1)nc(SCc1ccccc1OC(F)F)n2CCc1ccc(OC)cc1 is entered as NPYLR7 ag = 3; NPYLR7 ag max-min = -1
Cc1c(C(=O)NC(C)CCc2ccccc2)cc(-c2ccc(Cl)cc2)n1-c1cccc(F)c1 (stereo unspecified) is entered as NPYLR7 ag = -12; NPYLR7 ag max-min = -12

Later entries
Every second line gives: NPYLR7 ag, NPYLR7 ag max-min
COc1ccc(CN(C)C(C)C(=O)Nc2ccc(C(C)C)cc2)cc1F (stereo unspecified)
    1, 0
CN1C(=O)C(O)(C2C(=O)Nc3ccc(Br)cc32)c2cc(Br)ccc21 (stereo unspecified)
    12, 3
CCOC(=O)COc1nc2c(c(-c3ccncc3)c1C#N)CCc1ccccc1-2
    19, 12
N#Cc1c(NC(=O)c2cnccn2)sc2c1CCC2
    -2, -1
CC(C)(C)OC(=O)NC1CCN(C(=O)c2sc3ncccc3c2-n2cccc2)CC1
    -6, -9
COc1cccc(COC(CN2CCN(C(=O)NC3CCCCC3)CC2)c2ccc(Cl)cc2)c1 (stereo unspecified)
    -3, 9
Cc1ccoc1C(=O)N(Cc1ccccn1)CC(C)C
    7, 4
Cc1cccc(CSc2nnc(CNC(=O)COc3ccccc3)n2-c2cc(Cl)ccc2Cl)c1
    1, 10
CCOC(=O)c1c(NC(=O)CCl)sc(C)c1C
    7, 9
CCN1CCN(C(=O)c2cc(-c3ccccc3)nn2-c2ccc(F)cc2)CC1
    26, 31
Cc1cc(=O)n2[nH]c(C(F)(F)F)nc2n1
    0, 0
COCOc1cccc(CN2CCC2(C)C(=O)Nc2cccc(NS(C)(=O)=O)c2)c1 (stereo unspecified)
    -1, -6
CCOC(C)C(=O)N1CCc2[nH]c3c(Br)cccc3c2C1 (stereo unspecified)
    -1, -4
CCN(CC)C(=O)Oc1ccc2c(ccn2Cc2ccc(Cl)cc2)c1NC(=O)C1COc2ccccc2O1 (stereo unspecified)
    -2, -11
CN(C)CCN1C(=O)C(O)=C(C(=O)c2ccco2)C1c1cccs1 (stereo unspecified)
    10&1, 3&-3
CC(C)C(CC(=O)N1CCN(S(N)(=O)=O)CC1)c1ccccc1 (stereo unspecified)
    8, 6
CCOC(=O)CNc1nc(C(C)(C)C)nc2c1cnn2C
    -5, -8
CCc1ncc(C(=O)N2CCC(O)(c3ccc4nc(C)ccc4c3)CC2)cn1
    6, 35

From PubChem BioAssay
